Source: PubChem (Johns Hopkins Ion Channel Center)
KCNQ2 enhance = enhances the rat KCNQ2 potassium channel. 310,000 compounds, 0.54% hits. CHO-K1 KCNQ2, FluxOR thallium flux fluorescence; hits give high values. B-score at 10 µM. AID 2239. O88943;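 active = fluorescence ratio B-score at least 3 SD of library B-scores, with initial fluorescence B-score within 3 SD, cut at about 5.3 in these data; same plate scores as AID 2156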;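 also: B-score of peak minus minimum over baseline fluorescence ratio after K+ and Tl+ stimulus; positive B-score means potentiation of KCNQ2 with more thallium influx and brighter signal; only the inactives scoring about 0 or higher are listed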
Target sequence (O88943 whole entry, looked up): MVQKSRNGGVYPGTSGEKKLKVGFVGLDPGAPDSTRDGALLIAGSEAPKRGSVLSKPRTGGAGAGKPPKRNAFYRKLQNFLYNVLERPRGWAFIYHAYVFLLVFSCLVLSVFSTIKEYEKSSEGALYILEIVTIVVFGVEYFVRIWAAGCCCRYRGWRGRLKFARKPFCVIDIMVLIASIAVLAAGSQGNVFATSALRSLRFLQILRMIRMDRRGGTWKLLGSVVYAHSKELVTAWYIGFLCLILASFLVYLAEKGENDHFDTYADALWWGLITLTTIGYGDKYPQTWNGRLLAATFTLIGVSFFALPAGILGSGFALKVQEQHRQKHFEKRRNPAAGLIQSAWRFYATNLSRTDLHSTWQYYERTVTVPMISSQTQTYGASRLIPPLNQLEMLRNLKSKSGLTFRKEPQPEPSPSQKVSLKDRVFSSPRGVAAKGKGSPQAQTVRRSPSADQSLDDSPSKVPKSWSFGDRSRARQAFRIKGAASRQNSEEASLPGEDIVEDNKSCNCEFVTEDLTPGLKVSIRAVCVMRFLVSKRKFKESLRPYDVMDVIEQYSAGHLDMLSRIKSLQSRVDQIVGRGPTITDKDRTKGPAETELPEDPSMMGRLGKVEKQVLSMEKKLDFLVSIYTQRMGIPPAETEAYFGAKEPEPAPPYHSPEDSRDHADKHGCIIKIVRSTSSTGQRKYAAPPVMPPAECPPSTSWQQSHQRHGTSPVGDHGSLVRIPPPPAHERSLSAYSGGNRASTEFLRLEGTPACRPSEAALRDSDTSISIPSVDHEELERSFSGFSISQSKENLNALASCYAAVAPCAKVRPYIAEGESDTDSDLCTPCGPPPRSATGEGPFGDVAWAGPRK
KCNQ2 enhance baseline = recorded beside KCNQ2 enhance, whose call it bears; B-score; compound at 10 µM; measured here: initial fluorescence intensity artifact check;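 brightness before thallium and not channel activity; 0 = typical well and far values either way flag optical interference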
The depositor's hits bear a star.

The opening 3 entries, ahead of the listing:
canonical_smiles: COC(=O)c1[nH]c2c(c1C)C(=O)CC(c1ccccc1)C2 (configuration not stated)
- KCNQ2 enhance: 0.78
- KCNQ2 enhance baseline: -1
canonical_smiles: C/C(=N\NC(=O)CCC(=O)N/N=C(\C)c1ccc(C)o1)c1ccc(C)o1
- KCNQ2 enhance: 0.64
- KCNQ2 enhance baseline: -1.1
canonical_smiles: COc1ccc(OC)c(NC(=S)N2CCN(C/C=C/c3ccccc3)CC2)c1
- KCNQ2 enhance: 0.42
- KCNQ2 enhance baseline: -0.03

The whole of this part (from the top)
canonical_smiles: COC(=O)c1[nH]c2c(c1C)C(=O)CC(c1ccccc1)C2 (configuration not stated)
- KCNQ2 enhance: 0.78
- KCNQ2 enhance baseline: -1
canonical_smiles: C/C(=N\NC(=O)CCC(=O)N/N=C(\C)c1ccc(C)o1)c1ccc(C)o1
- KCNQ2 enhance: 0.64
- KCNQ2 enhance baseline: -1.1
canonical_smiles: COc1ccc(OC)c(NC(=S)N2CCN(C/C=C/c3ccccc3)CC2)c1
- KCNQ2 enhance: 0.42
- KCNQ2 enhance baseline: -0.03
canonical_smiles: COc1ccc(NC(=O)Nc2ccccc2SC)cc1OC
- KCNQ2 enhance: 1
- KCNQ2 enhance baseline: 1.6
canonical_smiles: C#CCOc1c(Br)cc(/C=N\NC(=O)CN2CCOCC2)cc1OCC
- KCNQ2 enhance: 1.2
- KCNQ2 enhance baseline: -0.02
canonical_smiles: CC(=O)Nc1ccc(S(=O)(=O)N2c3ccc(F)cc3CCC2C)cc1 (configuration not stated)
- KCNQ2 enhance: 0.86
- KCNQ2 enhance baseline: 0.68
canonical_smiles: CCN(CC)c1ccc(C2C(C(=O)OC(C)C)C(=O)CC(C)(O)C2C(=O)OC(C)C)cc1 (configuration not stated)
- KCNQ2 enhance: 0.34
- KCNQ2 enhance baseline: -1.1
canonical_smiles: COCCN(C(=S)Nc1cccc(OC)c1)C(C)c1cccs1 (configuration not stated)
- KCNQ2 enhance: 1.5
- KCNQ2 enhance baseline: 0.53
canonical_smiles: O=C(NCc1cccs1)c1ccc(N2CCCC2=O)cc1
- KCNQ2 enhance: 0.75
- KCNQ2 enhance baseline: -0.75
canonical_smiles: Cc1ccc(NC(=O)c2cc(-c3cc(C)c(C)cc3O)n[nH]2)cc1C
- KCNQ2 enhance: 2
- KCNQ2 enhance baseline: -0.13

canonical_smiles: C#CCOCCOCCOCCNc1nc(N2CCN(C(=O)C([C@@H](C)CC)n3cc(C(N)CC(C)C)nn3)CC2)nc(N2CCN(C(=O)[C@H](CCC(=O)O)n3cc(C(N)CC(C)C)nn3)CC2)n1 (some centres not stated)
- KCNQ2 enhance: 0.91
- KCNQ2 enhance baseline: 0.89
canonical_smiles: O=c1cnnc(Nc2ccccc2F)[nH]1
- KCNQ2 enhance: 0.7
- KCNQ2 enhance baseline: -0.06
canonical_smiles: O=C(NCc1ccco1)c1sc2cc(Cl)ccc2c1Cl
- KCNQ2 enhance: 0.69
- KCNQ2 enhance baseline: -0.65
canonical_smiles: O=C(NCCN1CCOCC1)c1cc2sccc2n1Cc1ccc(F)cc1
- KCNQ2 enhance: 0.89
- KCNQ2 enhance baseline: -0.1
canonical_smiles: CCOc1ccccc1N(CC)C(=O)c1ccc2c(=O)n3c(nc2c1)CCCCC3
- KCNQ2 enhance: 0.44
- KCNQ2 enhance baseline: -0.43
canonical_smiles: COc1ccc(-c2nn(C)c3sc(C(=O)NCc4ccco4)cc23)cc1OC
- KCNQ2 enhance: 0.26
- KCNQ2 enhance baseline: 0.28
canonical_smiles: COc1cccc(N2CCN(C(=O)c3ccc(CS(=O)Cc4ccc(C)cc4)o3)CC2)c1 (configuration not stated)
- KCNQ2 enhance: 0.82
- KCNQ2 enhance baseline: -0.57

3 entries from above, ordered by the value under KCNQ2 enhance, highest first:
canonical_smiles: CC(=O)Nc1ccc(S(=O)(=O)N2c3ccc(F)cc3CCC2C)cc1 (configuration not stated)
- KCNQ2 enhance: 0.86
- KCNQ2 enhance baseline: 0.68
canonical_smiles: CCN(CC)c1ccc(C2C(C(=O)OC(C)C)C(=O)CC(C)(O)C2C(=O)OC(C)C)cc1 (configuration not stated)
- KCNQ2 enhance: 0.34
- KCNQ2 enhance baseline: -1.1
canonical_smiles: COc1ccc(-c2nn(C)c3sc(C(=O)NCc4ccco4)cc23)cc1OC
- KCNQ2 enhance: 0.26
- KCNQ2 enhance baseline: 0.28

These rows are one share of the data (hit frequency here may not be typical).
